Sfp PPTase inh: Sfp phosphopantetheinyl transferase inhibition; actives 3.5% (n = 310,000); Potency, µM, without a hit: max response, negative = inhibition, hits mostly inhibitors; Biochemical Sfp PPTase activity, qHTS; active = well fitted inhibition curve with a large enough effect; inconclusive = small, poorly fitted or top-dose-only effect, or another doubt; inactive = no such curve, though single readings can be large or run the other way;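 note: the enzyme is Sfp with the accession as filed and its product quenches rhodamine fluorescence; potency is the fitted concentration of half-maximal effect; 0% = enzyme reaction without inhibitor and -100% = no enzyme wells; top concentration of the series not given in the record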
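With Hepes-Na pH 7.6 buffer containing 10 mM MgCl2, Sfp (15 nM) modified BHQ-2-YbbR (12.5 uM) using rhodamine-CoA (5 uM). Two reads 30 minutes apart at 525/598 nm yielded each well's rate.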
gsp agonist: gsp mutant agonism | gsp mutant cells, cAMP HTRF, 30 min; control for the full effect not named in the record | Potency, µM (highest dose often 76.9 µM), inactives show at the top dose activation (cAMP increase), most hits filed as activators | actives 0.13% (n = 340,000) | AID 624287; active = well fitted activation curve with a large enough effect; inconclusive = small, poorly fitted or top-dose-only effect, or another doubt; inactive = no such curve, though single readings can be large or run the other way; cell line not stated here;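 note: phosphodiesterase inhibitor Ro 20-1724 added with compounds to block cAMP breakdown; potency is the fitted concentration of half-maximal effect; nearly all actives have a fitted effect of over 60% in size; about a fifth of the inactives were tested at one dose only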
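Cells stably selected in G418 were plated at 2000/well, grown 16-24 hr, then given compounds in DMSO with the PDE inhibitor […] (300 uM solution added) for 30 min at 37C; cAMP was read by HTRF.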
gsp antag: antagonists of gsp mutant (McCune-Albright syndrome); gsp-mutant cells, cAMP HTRF, 30 min; control for the full effect not named in the record; Potency, µM (titrated, usually from 76.9 µM), inactives show top-dose activity change, negative = inhibition, usual class: inhibitors; actives 0.4% (n = 340,000); active = falling curve of any shape with a large fitted effect; inconclusive = falling curve, mostly with a smaller effect; inactive = flat or rising curve; cell line not stated here;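 note: intracellular cAMP measured with PDE inhibitor Ro 20-1724 present during compound exposure; potency is the fitted concentration of half-maximal effect; % is set by controls: 0 for no effect and ±100 for the full control effect; nearly all actives have a fitted effect of over 65% in size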
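Cells, 2000/well, grown 16–24 h in DMEM 10% FBS with 0.5 mg/ml G418, then compounds plus […] (300 uM addition stock), 30 min at 37C. cAMP read by HTRF (cAMP-d2 and anti-cAMP antibody-K in lysis buffer) after 30 min RT.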
CtBP-E1A blk: inhibitors of CtBP/E1A interaction | AlphaScreen GST-E1A/His-CtBP binding, 1536-well; hits give low values; control for the full effect not named in the record | activity change, % (test concentration not listed) | actives 0.49% (n = 340,000) | AID 651724; in the data active means activity change below about -65%; inconclusive means about -30% to -65%; inactive means above about -30%; note: % is set by controls: 0 for no effect and ±100 for the full control effect; compound concentration not given in the record
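Homogeneous bead-based format: GST-tagged E1A captured on glutathione donor beads, His-tagged CtBP on nickel acceptor beads; compounds precede bead addition by 2 h at 37 °C.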
ClpP mod: qHTS Assay for Activators of ClpP; ATP-dependent Clp protease proteolytic subunit (Bacillus subtilis (strain 168)), P80244; Potency, µM (highest dose often 57.5 µM), without a hit: top-dose activity change, negative = active; purified B. subtilis ClpP, FRET peptide cleavage, 20 min; actives 1.9% (n = 340,000); active = well fitted falling curve with a large enough effect; inconclusive = small, poorly fitted or top-dose-only effect; inactive = no such curve, though single readings can be large or run the other way; note: potency is the fitted concentration of half-maximal effect; the source files actives as falling curves though it sought activators and does not explain the sign; nearly all actives have a fitted effect of over 65% in size; many hits overshoot -100%
Target sequence (P80244 whole entry, looked up): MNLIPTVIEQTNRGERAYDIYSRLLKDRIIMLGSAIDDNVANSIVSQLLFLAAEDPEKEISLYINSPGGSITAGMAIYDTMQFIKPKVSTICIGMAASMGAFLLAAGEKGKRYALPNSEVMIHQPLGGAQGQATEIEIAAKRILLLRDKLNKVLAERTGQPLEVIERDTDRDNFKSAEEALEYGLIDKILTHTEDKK
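Buffer: 100 mM Tris/HCl pH8, 100 mM KCl, 0.05% low protease BSA, 2.5% glycerol, 0.01% Tween-20. ClpP 10 microg/mL final; 20 min RT; delta FRET normalized to ADEP and DMSO controls.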
Menin-MLL FL inh: menin-MLL binding inhibition, fluorescein peptide; 290,000 tested, under 10 active; Fluorescence polarization, fluorescein-MLL peptide displacement from menin; FP activity change, % at 61.4 µM; inconclusive = falling polarisation curve, or a change in total fluorescence; inactive = total fluorescence flat and polarisation flat or rising; no compound was filed as active; the % refers to the polarisation; negative = inhibition;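 note: % of control where 0% means no effect; inhibitors lower the polarisation; unlabelled MLL peptide was the positive control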
TRPV1 PAM: potentiators of human vanilloid receptor 1 (TRPV1); actives 0.02% (n = 320,000); potentiation, % at 8.33 µM; Q8NER1; TRPV1-expressing cells, Fluo-8 calcium influx, capsaicin EC20 potentiation; host cell line not named in the record; control for the full effect not named in the record; active means potentiation above 80%; inconclusive means 30% to 80%; inactive means below 30%; note: 0% is about no effect
Target sequence (Q8NER1 whole entry, looked up): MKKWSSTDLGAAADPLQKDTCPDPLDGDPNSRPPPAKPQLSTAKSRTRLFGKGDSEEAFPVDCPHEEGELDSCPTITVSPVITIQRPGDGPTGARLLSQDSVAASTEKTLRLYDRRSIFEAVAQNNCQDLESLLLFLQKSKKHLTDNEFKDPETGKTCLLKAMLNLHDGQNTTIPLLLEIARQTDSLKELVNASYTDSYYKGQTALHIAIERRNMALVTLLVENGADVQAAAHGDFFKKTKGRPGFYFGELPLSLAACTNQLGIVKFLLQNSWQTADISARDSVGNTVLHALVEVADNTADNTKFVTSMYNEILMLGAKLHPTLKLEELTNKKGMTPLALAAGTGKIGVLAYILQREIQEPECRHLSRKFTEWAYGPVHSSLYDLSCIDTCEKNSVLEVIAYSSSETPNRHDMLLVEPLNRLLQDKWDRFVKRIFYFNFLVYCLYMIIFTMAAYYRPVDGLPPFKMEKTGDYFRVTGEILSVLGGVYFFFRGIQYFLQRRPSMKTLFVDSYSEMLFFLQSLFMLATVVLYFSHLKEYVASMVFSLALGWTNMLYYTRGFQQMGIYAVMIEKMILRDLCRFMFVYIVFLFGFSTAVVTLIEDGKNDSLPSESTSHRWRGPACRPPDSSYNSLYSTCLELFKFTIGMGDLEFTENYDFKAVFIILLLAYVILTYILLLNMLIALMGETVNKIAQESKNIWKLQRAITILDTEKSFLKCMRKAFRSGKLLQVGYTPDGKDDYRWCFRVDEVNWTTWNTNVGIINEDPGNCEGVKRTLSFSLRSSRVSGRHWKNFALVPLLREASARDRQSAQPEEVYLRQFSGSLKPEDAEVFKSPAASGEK
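Cells expressing TRPV1 were dye-loaded with Fluo-8 and read kinetically: 10 s baseline, 3 min after compound (agonist portion), then 2 min after EC20 capsaicin (allosteric enhancer portion). Calcium-bound dye fluorescence at 480/520 nm.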
* marks the source's active call; other numbers are inactive results; ? = inconclusive; / = no result given; & = joins results of further samples; [ ] = remark or other dose. Not a hit list; about 5.3% have a hit in one of these screens.

SMILES	Sfp PPTase inh	gsp agonist	gsp antag	CtBP-E1A blk	ClpP mod	Menin-MLL FL inh	TRPV1 PAM
C=CCn1cc(C(=O)NCc2ccc3c(c2)OCO3)c(=O)c2cc(S(=O)(=O)N(CC)CC)ccc21	2%	19%[15.4 µM]	?	-19	-25%	0.1	-1
COc1ccc([N+](=O)[O-])cc1NC(=O)C(C)OC(=O)Cn1[nH]c(=O)c2ccccc2c1=O (stereo not given)	/	2%[15.4 µM]	4%	3	1.4%	/	0
O=C(CCn1ccc2cc(S(=O)(=O)N3CCCC3)ccc21)NCCc1ccccc1	5%	-58%[inhibitor]	-5%	/	-2.0%	/	0
COCC(C)n1c(C)cc(C(=O)Cn2nc(C(=O)O)c3ccccc3c2=O)c1C (stereo not given)	14%	8%[15.4 µM]	-6%	0	/	1.7	27
CCOP(=O)(OCC)/C(C#N)=C/c1c[nH]c2ccccc12	-2%	-51%	-1%	/	-3.3%	0.5	-7
CCOc1ccc(OCC(=O)OCC(=O)N2CCN(C(=O)c3ccco3)CC2)cc1	/	-48%[inhibitor]	4%	-11	-5.0%	/	5
O=C(Nc1ccc(OC(=O)c2cccs2)cc1)c1ccco1	-7%	-38%[inhibitor]	-12%	2	1.9%	-2.1	-13
O=C(CSc1nc2ccccc2c(=O)n1CC1CCCO1)NCc1ccccc1 (stereo not given)	16%	16%[15.4 µM]	-1%	1	/	-2.2	-6
COCOCCn1cc(CN2CCS(=O)(=O)N(Cc3ccc(-c4ccc(F)cc4)cc3)C(CC(C)C)C2=O)nn1 (stereo not given)	/	2%	/	-27	-1.8%	/	/
O=C(O)c1cccc(NCc2cccnc2)c1	4%	-1%	-1%	1	-13%	6.1	16
Cc1nn(C)cc1C=NCCOCc1ccccc1	11%	5%	6%	1	2.4%	0.1	1
CCN1CCN(c2nc3c(c(=O)[nH]c(=O)n3C)n2CCCSc2ncccn2)CC1	3%	?	5%	-1	-2.1%	2.2	-5
O=C(CCCO)c1ccc2c(c1)OCCO2	12%	-49%[inhibitor]	5%	-10	-16%	1.0	-1
COc1ccc(S(=O)(=O)NCCc2nnc3ccc(SCc4cccnc4)nn23)cc1	15%	?	4%	/	-0.3%	-1.9	5
CCn1nc(C)c(CNC(=O)c2cc(COc3ccc(C)nc3)on2)c1C	6%	-15%	6%	0	-0.3%	-4.8	3
COc1ccc(-c2cc(C3CCN(Cc4ccc([N+](=O)[O-])cc4)CC3)[nH]n2)cc1	-10%	13%[15.4 µM]	-6%	-3	/	7.9	0
O=[N+]([O-])c1ccc(Sc2ccc(Cl)c(Cl)c2)nc1	-3%	-27%	4%	-13	1.2%	-0.2	3
O=C(OCN1C(=O)c2ccccc2C1=O)c1ccc(Cl)nc1	7%	-10%[15.4 µM]	-6%	1	/	-0.2	10
O=C(CCc1nnc(CCCCc2ccccc2)o1)N1CCC(N2CCCC2)CC1	-3%	-104%[inhibitor]	-4%	/	-0.3%	3.2	-1
COC(=O)/C=C1\SC(=Nc2ccc(OC)cc2)NC1=O	12%	-13%	-24%	16	1.1%	-7.2	0

Sorted by value in gsp agonist (smallest number first): three from the list above
Structure,gsp agonist
O=[N+]([O-])c1ccc(Sc2ccc(Cl)c(Cl)c2)nc1,-27%
O=C(O)c1cccc(NCc2cccnc2)c1,-1%
Cc1nn(C)cc1C=NCCOCc1ccccc1,5%

The listing picks up, starting six compounds before the break.
SMILES	Sfp PPTase inh	gsp agonist	gsp antag	CtBP-E1A blk	ClpP mod	Menin-MLL FL inh	TRPV1 PAM
CCn1nc(C)c(CNC(=O)c2cc(COc3ccc(C)nc3)on2)c1C	6%	-15%	6%	0	-0.3%	-4.8	3
COc1ccc(-c2cc(C3CCN(Cc4ccc([N+](=O)[O-])cc4)CC3)[nH]n2)cc1	-10%	13%[15.4 µM]	-6%	-3	/	7.9	0
O=[N+]([O-])c1ccc(Sc2ccc(Cl)c(Cl)c2)nc1	-3%	-27%	4%	-13	1.2%	-0.2	3
O=C(OCN1C(=O)c2ccccc2C1=O)c1ccc(Cl)nc1	7%	-10%[15.4 µM]	-6%	1	/	-0.2	10
O=C(CCc1nnc(CCCCc2ccccc2)o1)N1CCC(N2CCCC2)CC1	-3%	-104%[inhibitor]	-4%	/	-0.3%	3.2	-1
COC(=O)/C=C1\SC(=Nc2ccc(OC)cc2)NC1=O	12%	-13%	-24%	16	1.1%	-7.2	0
CCCn1c(SCC(=O)N(C)C2CCCCC2)n[nH]c1=O	/	-47%[inhibitor]	/	2	0.3%	/	/
CCOC(=O)CN[C@H]1CCC2C3CC=C4C[C@@H](O)CC[C@]4(C)C3CC[C@@]21C (stereo not given in full)	/	5%	1%	3	48%	/	/
CSc1nc2cc(Oc3cccc(Cl)c3Cl)c(Cl)cc2[nH]1	?	/	?	11	-1.0%	18&15	11
O=C(NCc1ccc(Cl)cc1)c1ccc2nc[nH]c2c1	3%	?	-8%	4	-0.6%	-2.1	-13
COc1ccccc1NC(=O)/C(=C/c1cccc([N+](=O)[O-])c1)c1ccccc1	-4%	-66%[inhibitor]	-29%	5	0.4%	2.8	-22
O=C1Nc2ccc(S(=O)(=O)N3CCCCCC3)c3cccc1c23	-27%	29%	-4%	-13	11%	3.0	/
CCN1CCN(CCOc2cccc(Cl)c2Cl)CC1	50µM*	1%	4%	/	-1.0%	2.5	18
Cc1ccccc1N1C(=O)CC(N2CCC(C(N)=O)CC2)C1=O (stereo not given)	-3%	16%	8%	-15	-2.1%	4.2	3
COc1ccc(CNc2nc3c(c(=O)n(Cc4ccc(Br)cc4)c(=O)n3C)n2C)cc1	21%	-30%	-13%	-3	-8.5%	2.0	-1
CCOc1ccc(NS(=O)(=O)c2cc3c4c(c2)C(C)C(=O)N4CCC3)cc1 (stereo not given)	0%	8%	-2%	3	-1.2%	/	-2
Cc1ccc(OCCC(=O)OCC(=O)N2c3ccccc3NC(=O)C2(C)C)cc1	/	-15%[15.4 µM]	-1%	0	/	/	-9
COc1ccc(CCNC(=O)c2csc3c2CCCC3)cc1OC	16%	-2%	-4%	-3	1.3%	-4.5	0
CCCCCCCN1CCC(=O)N([C@H](CO)Cc2ccccc2)CC1	7%	8%	8%	1	-2.6%&1.6%	-1.2	12
O=C(CNS(=O)(=O)c1ccccc1F)Nc1ccc(N2CCOCC2)cc1	-5%	4%	-21%	7	-0.3%	1.8	3
CCCNS(=O)(=O)c1ccc(CCC(=O)Nc2ccc3c(c2)OCO3)cc1	3%	-5%	8%	-5	-1.2%	3.7	10
Cc1ccc(-c2nn(-c3ccccc3)cc2C=C2C(=O)CC(C)(C)CC2=O)cc1	25µM*	-3%	?	7	0.9%	-2.6	11
NC12CC3CC(C1)CC(CO)(C3)O2	6%	-35%[inhibitor]	-1%	6	-0.7%	3.0	5
CN(C)C(=O)CCc1ccc2c3c([nH]c2c1)[C@]1(CCC2CCCC2)[C@@H](C(=O)N2CCOCC2)C[C@H](CC(=O)NCc2ccco2)C(=O)N1CC3	/	/	-11%	0	-2.8%	/	/
C#CCN(CC=C)C(=O)c1ccc(OC2CCN(S(=O)(=O)N(C)C)CC2)cc1	9%	-17%	-12%	-4	-0.6%	-0.4	5
Cc1nnc(NC(=O)C2CCCCC2)s1	12%	1%	4%	-5	1.4%	4.4	-4
O=C(O)c1ccc(N/N=C/c2cc3ccccc3nc2Cl)cc1	-12%	-14%	?	/	-4.1%	?	10
Cc1ccc(NC(=O)COC(=O)c2ccnn2C)cc1	7%	-9%	4%	3	-1.5%	0.0	-9
O=C(NCCc1ccccc1)C1CCN(C(=O)N2CCOc3ccccc32)CC1	20%	-17%	1%	4	-2.6%	-3.6	-21
COc1ccc(N(CC(=O)NCc2ccccc2)C(=O)Cn2nnc(-c3ccccc3F)n2)cc1OC	-2%	2%	-1%	4	/	0.7	7
CC1C(=O)Nc2ccc(S(=O)(=O)N3CCN(c4cccc(C(F)(F)F)c4)CC3)cc2NC1=O (stereo not given)	11%	7%	-6%	0	-2.4%	-0.6	-13
Cc1cccc(C)c1OC(=O)Cc1ccccc1[N+](=O)[O-]	3%	?	-6%	3	/	3.4	5
CCCc1nn(C)c(C(=O)Nc2ccc(C)c(C)c2)c1Cl	-9%	9%[15.4 µM]	?	23	0.8%	-0.4	1
CC(C)Nc1ccc(-n2nc3ccccc3[n+]2[O-])cc1	5%	7%[15.4 µM]	7%	-19	28µM*	5.3	-4
C[C@@H]1COC(=O)[C@H](CC(=O)OC(C)(C)C)C/C=C\C[C@H](CC(=O)N(CCO)Cc2ccccc2)C(=O)N1	/	/	9%	-11	-1.9%	/	/
CC1CCCN(c2ccc(C(=O)OCn3nnc4ccccc4c3=O)cc2[N+](=O)[O-])C1 (stereo not given)	-13%	12%	-3%	-28	-1.5%	-2.5	?
Cc1cccc(C(=O)O/N=C(\N)c2ccccn2)c1	11%	-2%[15.4 µM]	4%	4	/	-2.0	-23
CCC(=O)c1ccc(OCC(=O)N(Cc2nnc(-c3ccccc3Cl)o2)C2CC2)cc1	/	0%	-16%	-1	6.4%	/	-12
CC(C)(c1ccccc1)c1ccc(OCCN2CCCC2)cc1	-22%	-4%	-14%	-16	/	-1.6	7
COc1ccc(C(=O)OCC(=O)c2ccc3[nH]c(=O)[nH]c3c2)c(OC)c1OC	/	?	9%	-1	-7.5%	/	/
CNC(=O)c1cc2c(ccc3ccccc32)o1	22%	3%	-5%	/	3.9%	-0.5	1

Screens as filed in PubChem.
